# TRPML1 blocker: qHTS for Inhibitors of the Human Mucolipin Transient Receptor Potential 1 (TRPML1). TRPML1-inducible cells, Ca2+ dye fluorescence, FDSS; hits give low values; inhibition of EC80 agonist-evoked calcium signal. activity change, negative = inhibition, % (test concentration not listed). 0.02% of 390,000 active. AID 624415, 2012; in the data active means activity change below about -50%; inconclusive means about -30% to -50%; inactive means above about -30%;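 also: stimulus is agonist 54-4 at its EC80 concentration; % is scaled to controls: 0 for no effect and ±100 for the full control effect; compound concentration not given in the record; the text of the record puts the active cut at -80%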
#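 TRPML1-DL cells, Tet-induced overnight (~16 h, 37 °C) at 1,500 cells/well, were loaded with Ca8 no-wash dye plus quencher for 45-90 min at room temperature. Compounds were pinned during FDSS kinetic reading; agonist 54-4 at EC80 (4 uM final) then added.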
# D2 PAM: Beta-Arrestin HTS for Positive Allosteric Modulators of the Human D2 Dopamine Receptor: Potentiators. DiscoveRx D2 beta-arrestin cells, luminescence, 90 min; 100% = 57 uM dopamine signal. 0.23% of 360,000 active. potentiation, % (test concentration not listed). AID 624464, 2012; active = potentiation of 50% or more; inconclusive = 30% to 50%; inactive = 30% or less;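 also: compound concentration not given in the record; tested on top of an EC20 dose of dopamine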
# Target sequence (P14416 whole entry, looked up): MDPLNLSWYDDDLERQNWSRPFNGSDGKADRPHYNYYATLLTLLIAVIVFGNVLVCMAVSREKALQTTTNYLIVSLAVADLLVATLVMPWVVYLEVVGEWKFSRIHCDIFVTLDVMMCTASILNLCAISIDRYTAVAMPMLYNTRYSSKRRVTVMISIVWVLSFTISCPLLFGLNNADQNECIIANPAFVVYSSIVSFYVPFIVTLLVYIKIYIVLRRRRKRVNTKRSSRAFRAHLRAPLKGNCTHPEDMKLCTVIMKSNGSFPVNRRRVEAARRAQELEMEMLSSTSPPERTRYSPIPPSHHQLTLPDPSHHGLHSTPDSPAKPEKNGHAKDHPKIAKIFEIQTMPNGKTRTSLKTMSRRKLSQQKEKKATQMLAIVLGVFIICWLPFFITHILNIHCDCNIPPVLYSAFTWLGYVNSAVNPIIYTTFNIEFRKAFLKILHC
#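 PathHunter beta-arrestin assay in DiscoveRx D2 cells. Compounds were added with an EC20 of dopamine (50 nM final) for 90 min at 37 deg C. Luminescence was read 1 h after detection reagent, with 57 uM dopamine as the EC100 control.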
# TRPML1 ag: qHTS for Agonists of the Human Mucolipin Transient Receptor Potential 1 (TRPML1); AID 624414, 2012; 0.12% of 410,000 active; TRPML1-expressing cells, Ca2+ dye fluorescence, FDSS; host cell line not named in the record; reference of the full effect not given here; Mucolipin-1 (Homo sapiens), Q9GZU1; activation, % (concentration not given with the values); in the data active = activation above about 50%; inconclusive = about 30% to 50%; inactive = below about 30%; also: 0% is about no effect; the text of the record puts the active cut at 80%
#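 Agonist activity was taken from a 110 s kinetic Ca2+ dye read on the FDSS after pinning compounds onto TRPML1-DL cells. The cells were seeded at 1,500/well with Tet inducer, incubated about 16 h, then dye-loaded at room temperature.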
# Six1-Eya2 blk: qHTS Assay for Inhibitors of the Six1/Eya2 Interaction. AlphaScreen GST-Six1/His-Eya2 binding, biochemical; hits give low values; control for the full effect not named in the record. activity change, % (concentration not given with the values). 0.56% of 360,000 active; in the data active = activity change below about -65%; inconclusive = about -30% to -65%; inactive = above about -30%; also: % is scaled to controls: 0 for no effect and ±100 for the full control effect
#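 Compounds are tested against tagged Six1 and Eya2 proteins bridged by glutathione donor and nickel acceptor beads; after a one-hour incubation at 37 °C without light, AlphaScreen emission is recorded.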
# PINK1 modulator: A Quantitative High throughput Screen to Identify Chemical Modulators of PINK1 Expression. PINK1 immunofluorescence, high-content cytometry, 24 h. Potency, µM (series often up to 76.6 µM), inactives show at the highest dose activation (PINK1 increase), hits mostly activators. 0.2% of 410,000 active; active = well fitted activation curve with a large enough effect; inconclusive = small, poorly fitted or top-dose-only effect; inactive = flat fitted curve, though single readings scatter; cell line not stated here;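 also: potency is read from the fitted curve at half-maximal effect; % of control where 0% means no effect; nearly all actives have a fitted effect of over 65% in size; a mitochondrial uncoupler was the plate control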
#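 Readout is PINK1 immunofluorescence, quantified alongside mitochondrial, cell and nuclear markers by laser-scanning microplate cytometry. Cells from a stable line were exposed to compound titrations (5 concentrations) for 24 hours, with CCCP controls.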
# D2 agonist: Beta-Arrestin HTS for Positive Allosteric Modulators of the Human D2 Dopamine Receptor: Agonists. 0.084% of 360,000 active. activation, % (no concentration beside the values). DiscoveRx PathHunter D2 beta-arrestin, luminescence, 90 min; 100% = 57 uM dopamine signal. AID 624465, 2012; in the data active = activation above about 40%; inconclusive = about 15% to 40%; inactive = below about 15%; also: compound concentration not given in the record; the text of the record calls up to 30% inactive
#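 Agonist mode: compounds alone added to overnight-plated D2 PathHunter cells for 90 min at 37 C, with 57 uM final dopamine (EC100) defining full response. Beta-arrestin recruitment detected by chemiluminescent reagent, read after 1 h at ambient temperature.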
# The depositor's hits bear a star; ? = inconclusive; . = not tested or not shown; [ ] = dose if it differs, or a comment.
SMILES,TRPML1 blocker,D2 PAM,TRPML1 ag,Six1-Eya2 blk,PINK1 modulator,D2 agonist
CCCCn1c(=O)c(CCC(=O)OCC(=O)NC(=O)NCCOC)nc2ccccc21,-3,1,1.5,-1,-0.7%,7.4
CCn1c(CCNC(=O)c2ccc(OC)c(OC)c2)nc2ccccc21,12,-12,-0.4,0,1.9%,-0.5
Cc1nnc(NS(=O)(=O)c2ccc(Br)cc2)s1,-2,-2,-0.4,-1,3.0%,-0.2
CCSc1cc(C)nc2c(-c3ccccc3)cnn12,-4,1,1.1,9,-1.5%,1.6
Cc1ccccc1OCC(=O)NS(=O)(=O)c1ccc(Cl)cc1,7,14,0.3,6,1.4%,-2.7
COc1ccc(N2CCN(C(=O)CSc3nnc(C)c(=O)[nH]3)CC2)cc1,1,-14,-0.4,-13,-1.9%[38.3 µM],1.1
O=C(c1nc2ccccn2c1CN1CCCC(c2nc3ccccc3o2)C1)N1CCCC1 (configuration not stated),19,-9,1.0,-1,-1.9%,-3.7
COC(=O)C1=C(C(=O)OC)[C@@H]2N(Cc3ccccc3)c3ccccc3[C@@]23C[C@@H](C(=O)OC)N(C(=O)COCc2ccccc2)C3=N1,38,13,-0.8,-18,18%,0.9
CCN1CCN(C(=S)Nc2cc(S(=O)(=O)N(CC)CC)ccc2C)CC1,10,-6,1.1,-1,1.6%,-4.7
COC(=O)Nc1ccccc1C(=O)N1CCC(O)(c2ccc(Cl)cc2)CC1,16,-8,0.7,4,1.9%,-1.9
COc1ccc(NC(=O)c2oc3ccccc3c2NC(=O)C2CCCO2)cc1OC (configuration not stated),24,-34,-1.4,13,1.6%,-6.9
CSCc1ccc(C(=O)NC(C)c2ccc(-n3ccnc3)cc2)cc1 (configuration not stated),6,-18,0.9,-8,1.1%,0.3
Nc1c(-c2ccccc2)cnn1-c1cccc([N+](=O)[O-])c1,1,1,-1.0,-3,-4.0%,1.5
Cc1cc(C)c(NC(=O)CSc2n[nH]c(-c3ccccc3Cl)n2)c(C)c1,-14,.,0.2,.,0.3%,.
CCCCCn1cnc2c(sc3nc4c(cc32)CSC(C)(C)C4)c1=O,12,-6,0.1,-9,20%,-7.1
CCCS(=O)(=O)N1CCC(C(=O)NCCCOC(C)C)CC1,-1,-5,0.4,-2,1.5%,-3.8
O=C(Nc1ccccn1)c1ccco1,60,-2,-0.1,1,1.3%[38.3 µM],-2.1
O=c1sc(N2CCN(c3ccc(F)cc3)CC2)nc2ccsc12,37,-3,0.7,7,13%,-3.6
Cc1ccc(Nc2nc(N)c([N+](=O)[O-])c(N3CCOCC3)n2)cc1,13,-17,0.5,1,-1.3%,-3.5
O=C(Nc1ccc(F)c(F)c1)C1CCCN(S(=O)(=O)c2cnc[nH]2)C1 (configuration not stated),0,1,-0.9,1,-0.1%,-4.0
CC1CN(c2ccc([N+](=O)[O-])c(NCCOc3ccccc3)c2)CCN1 (configuration not stated),12,-13,0.6,-23,-0.1%,-6.9
COCCN(C(=O)COC(=O)c1ccc(Br)o1)c1c(N)n(Cc2ccccc2)c(=O)[nH]c1=O,2,-12,0.0,2,0.1%,-7.2
CC(=O)C(C(C)=O)C(c1ccccc1)c1nc2ccccc2[nH]c1=O (configuration not stated),3,-8,-0.4,1,?,-3.4
COc1ccc(OC)c(S(=O)(=O)NCC(c2ccc(N(C)C)cc2)N2CCOCC2)c1 (configuration not stated),2,.,-0.4,.,-1.7%,.
O=C(N/N=C/c1ccc([N+](=O)[O-])cc1)c1ccccc1OCc1ccccc1,21,0,1.0,-9,5.0%,1.8
CC[C@H]1C(Nc2ccccc2)C[C@@H]2CCN3C(=O)CC[C@H]1[C@H]23 (some centres not stated),0,-10,-0.4,6,5.9%,-0.4
O=C(COc1ccccc1Cl)NCCNC(=O)c1cnccn1,-8,-1,0.6,-1,0.6%,7.7
C#Cc1ccccc1OCCCN1CCC(C(O)(c2ccccc2)c2ccccc2)CC1,.,.,4.1,-19,-1.3%,.
O=C(Nc1ccccc1)c1ccccc1NC(=O)c1ccccc1[N+](=O)[O-],-22,-3,-0.5,6,0.5%,-6.1
C=CCn1c(-c2ccc(Cl)cc2)ccc(C#N)c1=O,-11,-21,1.0,17,2.4%,-1.8
O=C(NCCS(=O)(=O)N1CCN(c2ccccc2)CC1)c1cc(=O)c2ccccc2o1,1,-12,0.2,9,6.0%,-2.4
CCc1ccc(-c2cc(C)no2)cc1S(=O)(=O)NCc1ccc(OC)cc1,-19,.,2.1,.,6.7%,.
COc1ccc(Cc2c(-c3ccccc3)nc3ccc(Cl)cn23)c(C)c1,19,-6,0.0,-1,4.1%,-1.9
CCOc1cc(S(=O)(=O)Nc2ccc(Cl)cn2)ccc1Cl,-1,1,-1.3,-7,-1.4%,0.2
CC1CN(Cc2nc3c(c(=O)[nH]c(=O)n3C)n2CC(N)=O)CC(C)O1 (configuration not stated),-12,-3,-0.5,8,-0.7%,-6.0
CN(CCOc1ccc(Cl)cc1)C(=O)Cc1ccc(S(=O)(=O)N2CCOCC2)s1,-7,-7,-0.2,0,-0.3%,-1.4
O=C(NCC1OCCc2ccccc21)c1ccc(NC(=O)c2ccccc2Cl)cc1 (configuration not stated),12,3,-0.3,7,0.0%,-3.7
S=C(c1cccs1)N1CCCC1,1,-12,-1.0,2,0.9%,-0.8
COc1ccc(N2CCN(C(=O)CCc3nnc4ccc(N5CCC(C)CC5)nn34)CC2)cc1,43,-7,1.4,-8,0.7%,1.5
Cc1ccc(NC(=O)CN2CCC(NC(=O)Cc3ccccc3)CC2)cc1C,-23,-10,0.5,16,.,-2.7
CCCCCN(C(=O)COC(=O)COc1c(C)cc(C)cc1C)c1c(N)n(CCCC)c(=O)[nH]c1=O,-3,-2,2.4,2,5.6%,-6.1
COc1ccccc1-n1ccnc(SCC(=O)NCc2ccccc2Cl)c1=O,-8,-6,0.1,8,-1.2%,0.4
CC(C)(C)c1cc(NC(=O)c2cccc(S(=O)(=O)N3CCOCC3)c2)no1,11,-6,0.0,0,1.4%,-0.6
O=C(CNC(=O)c1ccc(-c2ccccc2)cc1)OCc1ccc(Br)cc1,7,2,0.5,3,1.5%,1.2
Cc1nc2ccccc2c2c(N)cccc12,-26,-4,0.6,-3,3.6%,3.0
COc1ccc(CCCC(=O)N/N=C/c2ccccc2OC)cc1,-1,-16,1.6,9,1.4%,-2.9
COc1ccc(-c2nn(-c3ccccc3)cc2/C=N/O)cc1OC,-14,-10,0.5,-7,2.9%,0.3
O=C(NCc1ccccn1)c1ccc(Cl)c(S(=O)(=O)N2CCOCC2)c1,-3,-6,0.7,0,-0.2%,2.4
CCOC(COC(=O)c1ccccc1C(=O)O)c1ccccc1 (configuration not stated),33,-2,-0.3,9,-0.1%,-2.5
CC(C(=O)Nc1ccc(C#N)cc1)N(C)CC(=O)N(C)c1c(N)n(Cc2ccccc2)c(=O)[nH]c1=O (configuration not stated),-3,-1,-0.6,8,1.2%,1.6
Cc1cc2nc3n(c2cc1C)CC1CC(C(=O)NCC2CC2)N(C)C31 (configuration not stated),-1,-13,-0.8,1,1.5%,-1.0
Cc1ccc(C(=O)NC(=S)N2CCN(c3ccccc3F)CC2)cc1,0,-30,0.4,15,4.2%,0.8
CCOC(=O)c1c(C)oc2ncnc(N3CCN(c4ccccc4OC)CC3)c12,1,.,1.1,.,0.6%,.
O=C(NC1CCCCC1)c1cc([N+](=O)[O-])ccc1N1CCCCC1,-13,-11,-0.1,-5,4.6%[38.3 µM],-2.8

# Molecules above that contain an aryl methoxy group:
SMILES,TRPML1 blocker,D2 PAM,TRPML1 ag,Six1-Eya2 blk,PINK1 modulator,D2 agonist
CCn1c(CCNC(=O)c2ccc(OC)c(OC)c2)nc2ccccc21,12,-12,-0.4,0,1.9%,-0.5
COc1ccc(N2CCN(C(=O)CSc3nnc(C)c(=O)[nH]3)CC2)cc1,1,-14,-0.4,-13,-1.9%[38.3 µM],1.1
COc1ccc(NC(=O)c2oc3ccccc3c2NC(=O)C2CCCO2)cc1OC (configuration not stated),24,-34,-1.4,13,1.6%,-6.9
COc1ccc(OC)c(S(=O)(=O)NCC(c2ccc(N(C)C)cc2)N2CCOCC2)c1 (configuration not stated),2,.,-0.4,.,-1.7%,.
CCc1ccc(-c2cc(C)no2)cc1S(=O)(=O)NCc1ccc(OC)cc1,-19,.,2.1,.,6.7%,.
COc1ccc(Cc2c(-c3ccccc3)nc3ccc(Cl)cn23)c(C)c1,19,-6,0.0,-1,4.1%,-1.9
COc1ccc(N2CCN(C(=O)CCc3nnc4ccc(N5CCC(C)CC5)nn34)CC2)cc1,43,-7,1.4,-8,0.7%,1.5
COc1ccccc1-n1ccnc(SCC(=O)NCc2ccccc2Cl)c1=O,-8,-6,0.1,8,-1.2%,0.4
COc1ccc(CCCC(=O)N/N=C/c2ccccc2OC)cc1,-1,-16,1.6,9,1.4%,-2.9
COc1ccc(-c2nn(-c3ccccc3)cc2/C=N/O)cc1OC,-14,-10,0.5,-7,2.9%,0.3
CCOC(=O)c1c(C)oc2ncnc(N3CCN(c4ccccc4OC)CC3)c12,1,.,1.1,.,0.6%,.

# High-throughput results from PubChem BioAssay.
